# Source: PubChem BioAssay (National Center for Advancing Translational Sciences (NCATS))
# HSD17B inh = qHTS Assay for Inhibitors of HSD17B4, hydroxysteroid (17-beta) dehydrogenase 4; 3-hydroxyacyl-CoA dehydrogenase type-2 (Homo sapiens), Q99714; recombinant HSD17B10, NADH fluorescence kinetic; many of its hits are not listed in these tables; Potency, µM (titrated, usually from 57.1 µM), for inactives: at the top dose activity change, negative = inhibition, hits mostly inhibitors; 75,000 tested, 7.6% active; active means well fitted inhibition curve with a large enough effect; inconclusive means small, poorly fitted or top-dose-only effect; inactive means no such curve, though single readings can be large or run the other way;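 further: the protocol describes HADH2 (HSD17B10) and not the HSD17B4 of the title; nearly all actives have a fitted effect of over 70% in size; most hits overshoot -100% by far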
#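 20 nM HADH2, pH 9.0 Tris/Tween; cpd preinc 15 min RT; start w/ 1 mM NAD+ + 90 uM b-hydroxybutyryl-CoA; kinetic fluor ex360/em450 q30s x 4 min; delta last-first.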
# * = called active by the depositor; ? = inconclusive; & = joins results of further samples; [ ] = remark or other dose. On the % scale 0 is the no-effect control and ±100 the full control effect; potency means the concentration at half of the fitted maximal effect. The list is partial. The share of hits here may be higher or lower than overall.
Structure | HSD17B inh
Cc1c(C)n(C(=O)CSc2ncn[nH]2)c2ccccc12 | 15%
COc1ccc2cc1Oc1ccc(cc1)C[C@H]1c3cc(c(OC)cc3CCN1C)Oc1c(OC)c(OC)cc3c1[C@@H](C2)N(C)CC3 | 6%[11.4 µM]
CCOC(=O)c1c(C)[nH]c(C)c1C(=O)CSc1nnc(-c2ccco2)n1Cc1ccccc1 | -11%
COc1ccc(CNC(=O)C2CCCN2S(=O)(=O)c2ccc(S(=O)(=O)N(C)C)cc2)cc1 (stereo not drawn) | 5%
Nc1n[nH]c2c1C1(CCCCC1)Cc1ccccc1-2 | ?
COC(=O)C1(C)C=CCN1C(=O)c1ccccc1 (stereo not drawn) | -2%
CCOC(=O)CN(C(=O)CSc1nnc(C)n1-c1ccccc1)c1ccccc1 | 13%
CC(N)C(=O)OC(C)(C)Cc1ccc(Cl)cc1 (stereo not drawn) | -1%
CCn1c(SCC(=O)Nc2ccccc2N2CCCCC2)nc2c1c(=O)n(C)c(=O)n2C | -7%
COC(=O)C1=C(C)N(c2ccc(C(=O)OC)cc2)C(=O)C1 | 2%
O=C(Cn1nnc(-c2ccccc2NC(=O)c2cccs2)n1)Nc1ccccc1 | 25µM*
c1ccc2c(c1)CCN(CCCNc1nc3ccccc3n3cnnc13)C2 | -2%
COC(=O)[C@@H]1C[C@@H]2CC[C@@H](O)C[C@@H]2N1Cc1ccc(N2CCN(C)CC2)cc1 | 6%
COc1ccccc1NC(=O)CCC(=O)O | 7%
CC1CC(=O)c2cnc(NCc3ccco3)nc2C1 (stereo not drawn) | 3%
CS(=O)(=O)N1CCC(C(=O)N2CCc3ccccc3C2)CC1 | -21%
COc1ccc(-n2c(COc3cccc(C)c3)nnc2SCC(=O)NCc2ccco2)cc1 | -9%
COC(=O)c1c(NC(=O)CCc2ccc(C)o2)sc(C)c1C | 32µM*
CCOCC(=O)N1CCc2ccccc21 | 9%
CN(C)Cc1ccc(O)c(CCc2ccccc2)n1 | -1%
CCCN(CCC)CCNC(=O)CS(=O)Cc1nc(-c2ccc(C)cc2)oc1C (stereo not drawn) | -10%
CCOC(=O)N1CCN(C(=O)Nc2ccccc2Cl)CC1 | 10%
CCOC(=O)CC1=C(C#N)C(c2cccnc2)C(C(=O)OCC)=C(N)O1 (stereo not drawn) | 7%
COc1cc(NC(=O)c2cc3c(C)nc4ccccc4c3o2)cc(OC)c1OC | 24%
CCOc1ccc(N2C(=O)c3cccnc3C2Nc2ccc(F)cc2)cc1 (stereo not drawn) | -10%

# (continued)
Structure | HSD17B inh
CCc1c(C(=O)Nc2cc(C)ccc2OC)[nH]c(C)c1C(C)=O | ?
O=C(CSc1nnc(CNc2ccc(F)cc2)n1Cc1ccco1)NC1CC1 | 9%
CCN(CC)CCCNC1CCS(=O)(=O)C1 (stereo not drawn) | 4%
CCn1c(CNc2ccc(F)cc2)nnc1SCC(=O)OC1CCCCC1 | -4%
CCCCOc1cccc(C(=O)N(Cc2cccs2)C2CCS(=O)(=O)C2)c1 (stereo not drawn) | 1%
COc1ccc(C(c2nnnn2Cc2ccccc2)N2CCN(C(=O)c3ccco3)CC2)cc1 (stereo not drawn) | -4%
O=C(COC(=O)c1ccco1)Nc1ccc2c(c1)OCO2 | 5%
CCC1CCCCN1C(=O)Cn1c(=O)oc2ccccc21 (stereo not drawn) | 11%
Cc1cc(C)n2nc(CCc3nc4nc(C)cc(C)n4n3)nc2n1 | 9%
CCOC(=O)N1CCC(NC(=O)Cn2ncc3c4ccccc4n(C)c3c2=O)CC1 | -6%
Cc1n[nH]c(C)c1S(=O)(=O)N1CCCCCC1 | 4%
c1ccc(Nc2ncncc2-c2ccc3c(c2)OCO3)cc1 | 5%
COC(=O)Cc1[nH]nc2c1C(C1C=CCCC1)C(C#N)=C(N)O2 (stereo not drawn) | -29%
CCNC(=O)C(C)Sc1ccc(Cl)cc1 (stereo not drawn) | -6%
CCN1CCN(CCCNC(=O)c2csc3c2CCCCC3)CC1 | 12%
Cc1cccc(CCNC(=O)C2CCCN(S(=O)(=O)c3cccc4nsnc34)C2)c1 (stereo not drawn) | 5%
O=C1C2C3C=CC(C3)C2C(=O)N1c1cccc(-c2nc3ccccc3o2)c1 (stereo not drawn) | 32µM*
COC(=O)CCC(=O)Nc1cccc2c(NC(=O)CCC(=O)OC)cccc12 | -2%
Nc1cc(Cl)ccc1N1CCOCC1 | 4%
CCOC(=O)C1=C(C)N=C2SC(C)C(=O)N2C1/C=C/c1ccccc1OC (stereo not drawn) | -21%
CCOC(=O)N1CCN(C(=O)c2cc3cc(Br)ccc3oc2=O)CC1 | 1%
Cc1cc(C)n(S(=O)(=O)c2cc(C)c(C)cc2C)n1 | 2%
Cc1ccccc1CNc1nc(N)n(-c2ccccc2)n1 | -4%
O=c1c(O)c(-c2ccccc2)oc2cccc(O)c12 | ?
CCN(CC(=O)N1CCN(C)CC1)S(=O)(=O)c1ccc(Cl)cc1 | 1%

# Reformatted as labelled records: part of the list above.
Molecule: CC1CC(=O)c2cnc(NCc3ccco3)nc2C1 (stereo not drawn)
  HSD17B inh: 3%

Molecule: CS(=O)(=O)N1CCC(C(=O)N2CCc3ccccc3C2)CC1
  HSD17B inh: -21%

Molecule: COc1ccc(-n2c(COc3cccc(C)c3)nnc2SCC(=O)NCc2ccco2)cc1
  HSD17B inh: -9%

Molecule: COC(=O)c1c(NC(=O)CCc2ccc(C)o2)sc(C)c1C
  HSD17B inh: 32µM*

# Later entries.
Structure | HSD17B inh
COC(=O)[C@@H](NC(=O)NC(C)CCc1ccccc1)C(C)C (stereo partly drawn) | -1%
CCCN=C(N)/C(C(=O)OCC)=C(\O)c1ccc(OC)cc1 | 0%
COc1cccc(C(=O)NC2CC3CCCC(C2)N3CC(=O)Nc2ccccc2)c1 (stereo not drawn) | 1%
O=c1c2[nH]c3ccccc3c2ncn1CCN1CCOCC1 | -23%
C=CC(C1=CC(=O)C=CC1=O)c1ccccc1 (stereo not drawn) | -8%
COc1ccc(OC)c(C2=NOC(C(=O)NCc3ccccn3)C2)c1 (stereo not drawn) | -11%
O=C(CSc1nnc2ccccn12)NCc1cccs1 | ?
CCOc1ccc(N=C(NC#N)SC)cc1 | 2%
CC12CN3CC(C)(CN(C1)C3c1ccc(Cl)cc1Cl)C2=O (stereo not drawn) | 5%
COCCn1c(=O)c(CCc2ccccc2)nc2cncnc21 | 3%
O=C(CN1C2=NCCN2c2ccccc21)c1ccc2c(c1)OCO2 | -1%
O=C(c1cc2nc(-c3ccc(F)cc3)cc(C(F)(F)F)n2n1)N1CCCC1 | 113%[activator]
COc1ccc(C)cc1NC(=O)c1ccoc1C | ?
Cc1ccc2c(c1)NC(=O)C(N1CCOCC1)(C(F)(F)F)O2 (stereo not drawn) | 5%
O=C(O)C1CC(=O)N(c2ccc(OCc3ccccc3Cl)cc2)C1 (stereo not drawn) | 8%
CCc1cccc(NC(=O)CN2C(=O)NC3(CCCCCCC3)C2=O)c1 | 8%
Fc1ccc(-c2nnc(CSc3nnc(-c4ccc5c(c4)OCO5)o3)o2)cc1 | 1%
CCCc1[nH]nc2c1C(c1ccc(OCCN3CCOCC3)c(OCC)c1)C(C#N)=C(N)O2 (stereo not drawn) | 4%
CCn1c(COc2ccccc2)nnc1SCC(=O)C(C)(C)C | 2%
CN1Cc2c(C(=O)OC(C)(C)C)ncn2-c2ccsc2C1=O | -1%
C=C(C)c1cccc(C(C)(C)NC(=O)N2CCN(CC)CC2)c1 | -7%
COc1ccc(NC(=O)CN2CCN(CC(=O)Nc3ccc(OC)c(OC)c3)CC2)cc1 | 4%
c1ccc(Nc2nc(-c3cccnc3)nc3ccccc23)cc1 | 7%
O=C(c1nc2nc(-c3ccc(Cl)cc3)cc(C(F)(F)F)n2n1)N1CCOCC1 | 32µM*
COc1cc(OC)cc(C(=O)N2CCN(C(=O)c3ccc(OC)c(OC)c3)CC2)c1 | 16%

# The list goes on:
Structure | HSD17B inh
O=C(CN1CCN(CCC(=O)Nc2ccccc2F)CC1)Nc1ccc(F)cc1 | 7%
Cc1ccccc1N1C(=O)CC(N(O)c2ccccc2)C1=O (stereo not drawn) | -3%
O=C(CCc1ccccc1)Nc1ccc(NC(=O)c2ccco2)cc1 | -11%
COc1ccc(NC(=O)CSc2nc(O)cc(=O)n2-c2ccccc2OC)cc1 | -25%
N[C@H](Cc1cnc[nH]1)C(=O)O | 2%
CCN1CCCC1CNC(=O)CCc1nc(-c2ccc(C)cc2)no1 (stereo not drawn) | 10%
O=C(COC(=O)CCNS(=O)(=O)c1ccc(Cl)cc1)NCc1ccco1 | -4%
CCc1ccc2[nH]c(=O)c(CN(CCO)C(=O)NCc3ccccc3)cc2c1 | ?
COc1ccc(OC)c(S(=O)(=O)N2Cc3ccccc3CC2C(=O)Nc2nccs2)c1 (stereo not drawn) | -19%
Cc1cc(=O)oc2cc(OC(C)C)ccc12 | 32µM*
c1ccc(CN2CCN(c3ncccn3)CC2)nc1 | 1%
COc1ccc2c(C(=O)CN3CCN(CCO)CC3)c[nH]c2c1 | 2%
CO[C@@H]1COC(=O)C/C=C\[C@H](C)[C@@H](NS(=O)(=O)c2ccc(C)cc2)COC(=O)C/C=C\[C@@H]1C | 9%&2%[11.4 µM]
COc1ccc2oc(-c3ccc(O)cc3)cc(=O)c2c1 | -8%
COc1ccccc1-c1nnc(SCC(=O)NC2CCCCC2)o1 | 1%
CCCCCN=Cc1c(C)[nH]n(-c2nc3ccccc3s2)c1=O | -7%
Cc1nc2cc(NC(=O)NCc3ccco3)ccc2n1C | 10%
O=C(CSc1nc(O)cc(=O)[nH]1)N1CCCc2ccccc21 | -11%
CC(=O)Oc1c2c(c3c(c1CC=C(C)C)O[C@@]14C(=CC5CC1C(C)(C)OC4(C/C=C(\C)C(=O)O)C5=O)C3=O)OC(C)(CCC=C(C)C)C=C2 (stereo partly drawn) | 20µM*
Cn1c(=O)c2c(-c3ccccc3)n(Cc3ccccn3)cc2n(C)c1=O | -3%
CCCn1nnc(NC(=O)c2ccccc2Cl)n1 | 7%
COc1ccccc1N(CC(=O)Nc1ccccc1C(=O)NCC(C)C)S(C)(=O)=O | 3%
CCC(=O)Nc1ccc(NC(=O)CSc2nnnn2C(C)C)cc1 | -1%
O=C(c1ccccc1)N1CCN(C(=O)N2CCOCC2)CC1 | 0%
COc1ccc(-n2cc(-c3ccccc3)c3c(N4CCN(CCO)CC4)ncnc32)cc1 | -30%

# The list continues:
Structure | HSD17B inh
CCOc1nc(-c2ccccc2)ccc1-c1noc(-c2ccco2)n1 | 25µM*
C=CCSc1n[nH]c(-c2ccc(OCCC)cc2)n1 | 32µM*
COc1cc(CCC(=O)OCn2nnc3ccccc3c2=O)cc(OC)c1OC | 2%
CCN1CCN(C(=O)CS(=O)(=O)Cc2nc(-c3ccc(C)cc3)oc2C)CC1 | 4%
CCOc1ncccc1C(=O)Nc1ccc(-c2cn3ccsc3n2)cc1 | 10µM*
O=C(CCCOc1ccccc1)n1nnc2ccccc21 | -3%
C#CC(CC)(CC)NC(=O)c1c(C)noc1C | 2%
O=C1CC(O)(C(F)(F)F)Oc2c1ccc1ccccc21 (stereo not drawn) | 25µM*
Cn1c(NCc2ccccc2O)nc2ccccc21 | 6%
Cc1noc(C)c1C(=O)N1CCC2(CC1)CCN(c1ncccn1)CC2 | -2%
COc1ccc(N2C(=O)C(CC(=O)Nc3ccccc3)N(Cc3ccc4c(c3)OCO4)C2=O)cc1 (stereo not drawn) | -3%
C[C@@]1(C(NS(=O)(=O)c2cccc3cccnc23)c2ccc(-c3ccccc3)cc2)C[C@H]1C1CCCCC1 (stereo partly drawn) | 0%
CCCCOC(=O)Nc1ccc(C(=O)OCCC)cc1 | -9%
COc1ccc(C(=O)N2CC3(C)CC2CC(C)(C)C3)cc1 (stereo not drawn) | 5%
Cc1ccc(NC(=O)CSc2nnc(NC(=O)CN3CCOCC3)s2)cc1 | 2%
CCOC(=O)c1c(C)c(C(=O)NCc2ccco2)c(C)n1Cc1ccccc1 | -16%
O=C(/C=C/c1ccccc1)c1cccs1 | -16%
COC(=O)c1ccc(CSc2nnc3n(Cc4ccccc4OC)c(=O)c4ccccc4n23)o1 | 25µM*
OC(CN1CCNCC1)Cn1c2ccc(Br)cc2c2cc(Br)ccc21 (stereo not drawn) | -10%
CC(C)OC(=O)CN1CCN(S(=O)(=O)c2cc(Cl)ccc2Cl)CC1 | 2%
Cc1cc(NC(=O)COc2nnc(-c3ccccc3)c3ccccc23)no1 | 7%
CC(C)Nc1nc2n(c(=O)n1)CCN2C(C)C | 0%
Cc1nn(Cc2ccccc2Cl)c(C)c1C(=O)NC1=NCCS1 | 1%
CC(=O)N1CCCc2cc(S(=O)(=O)N3CCN(C4CCCCC4)CC3)ccc21 | -4%
CC(=O)OCC1=C(C(=O)O)N2C(=O)C(NC(=O)CSc3ccncc3)[C@@H]2SC1 (stereo partly drawn) | -2%
CCc1nnc(NC(=O)CSc2nnc3c4ccccc4n(C)c3n2)s1 | -1%
Cc1ccccc1C(C(=O)NCc1ccco1)N(CC1CCCO1)C(=O)Cn1nnc2ccccc21 (stereo not drawn) | 4%

# 3 compounds out of the list, ordered by molar mass, low to high.
Structure | HSD17B inh
CCOc1nc(-c2ccccc2)ccc1-c1noc(-c2ccco2)n1 | 25µM*
Cc1nn(Cc2ccccc2Cl)c(C)c1C(=O)NC1=NCCS1 | 1%
CCN1CCN(C(=O)CS(=O)(=O)Cc2nc(-c3ccc(C)cc3)oc2C)CC1 | 4%
